# TRPML1 ag: human mucolipin-1 channel agonism; Q9GZU1; TRPML1-expressing cells, Ca2+ dye fluorescence, FDSS; host cell line not named in the record; reference of the full effect not given here; activation, % (concentration not given with the values); 410,000 tested, 0.12% active; in the data active = activation above about 50%; inconclusive = about 30% to 50%; inactive = below about 30%; also: 0% is about no effect; the text of the record puts the active cut at 80%
# Target sequence (Q9GZU1 whole entry, looked up): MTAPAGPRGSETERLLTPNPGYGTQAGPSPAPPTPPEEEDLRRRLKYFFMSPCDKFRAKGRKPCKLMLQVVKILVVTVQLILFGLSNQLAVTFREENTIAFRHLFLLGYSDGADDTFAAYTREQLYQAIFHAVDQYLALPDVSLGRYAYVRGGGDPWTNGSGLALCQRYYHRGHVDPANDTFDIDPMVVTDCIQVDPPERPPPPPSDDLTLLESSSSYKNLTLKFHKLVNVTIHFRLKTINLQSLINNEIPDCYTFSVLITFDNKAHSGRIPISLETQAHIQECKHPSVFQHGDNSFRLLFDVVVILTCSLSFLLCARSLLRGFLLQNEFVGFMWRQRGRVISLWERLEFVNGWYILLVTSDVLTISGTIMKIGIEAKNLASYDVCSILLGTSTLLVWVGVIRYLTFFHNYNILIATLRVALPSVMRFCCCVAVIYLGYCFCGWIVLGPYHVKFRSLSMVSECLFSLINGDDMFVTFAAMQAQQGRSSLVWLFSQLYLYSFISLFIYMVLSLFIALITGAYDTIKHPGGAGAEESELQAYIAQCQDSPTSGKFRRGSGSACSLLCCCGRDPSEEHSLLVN
#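 Kinetic FDSS Ca2+ read in Tet-induced TRPML1-DL cells (ABD Ca8 dye plus quencher, 45-90 min RT loading): baseline, then compound, then 110 s agonist window; EC80 agonist 54-4 at 4uM final added afterwards for a 110 s antagonist window.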
# D2 ag: agonists of human D2 dopamine receptor (beta-arrestin); P14416; DiscoveRx PathHunter D2 beta-arrestin, luminescence, 90 min; 100% = 57 uM dopamine signal; AID 624465; 360,000 tested, 0.084% active; activation, % (concentration not given with the values); in the data active = activation above about 40%; inconclusive = about 15% to 40%; inactive = below about 15%; also: compound concentration not given in the record; the text of the record calls up to 30% inactive
# Target sequence (P14416 whole entry, looked up): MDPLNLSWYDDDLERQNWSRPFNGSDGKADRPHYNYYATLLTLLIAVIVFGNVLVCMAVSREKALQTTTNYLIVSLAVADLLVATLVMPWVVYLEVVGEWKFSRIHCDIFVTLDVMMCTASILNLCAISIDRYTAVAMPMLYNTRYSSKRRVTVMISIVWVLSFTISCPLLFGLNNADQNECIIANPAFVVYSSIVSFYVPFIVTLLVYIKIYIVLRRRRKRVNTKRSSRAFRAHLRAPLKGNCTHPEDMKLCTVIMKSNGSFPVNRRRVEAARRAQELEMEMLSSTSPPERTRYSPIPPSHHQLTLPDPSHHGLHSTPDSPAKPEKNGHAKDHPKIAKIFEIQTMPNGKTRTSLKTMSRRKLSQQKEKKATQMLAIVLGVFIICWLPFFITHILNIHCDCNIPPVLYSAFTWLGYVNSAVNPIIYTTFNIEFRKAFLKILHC
#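 DiscoveRx PathHunter D2 beta-arrestin cells (2,100/well) attached overnight, then compound-stimulated 90 min at 37 C in HBSS/10 mM HEPES/0.1% Tween-20 buffer; beta-galactosidase complementation read by luminescence after 1 h at ambient temperature. Dopamine 57 uM final (EC100) as control.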
# Six1-Eya2 inh: Six1/Eya2 interaction inhibition | AID 651725 | AlphaScreen GST-Six1/His-Eya2 binding, biochemical; hits give low values; control for the full effect not named in the record | 360,000 tested, 0.56% active | activity change, % (no concentration beside the values) | Q15475+O00167; in the data active = activity change below about -65%; inconclusive = about -30% to -65%; inactive = above about -30%; also: % is scaled to controls: 0 for no effect and ±100 for the full control effect; compound concentration not given in the record
#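 Compounds are tested against tagged Six1 and Eya2 proteins bridged by glutathione donor and nickel acceptor beads; after a one-hour incubation at 37 °C without light, AlphaScreen emission is recorded.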
# PINK1 modulator: PINK1 expression modulation; 410,000 tested, 0.2% active; PINK1 immunofluorescence, high-content cytometry, 24 h; Potency, µM (titrated, usually from 76.6 µM), without a hit: top-dose activation (PINK1 increase), usual class: activators; active = well fitted activation curve with a large enough effect; inconclusive = small, poorly fitted or top-dose-only effect; inactive = flat fitted curve, though single readings scatter; cell line not stated here;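 also: potency is read from the fitted curve at half-maximal effect; % of control where 0% means no effect; nearly all actives have a fitted effect of over 65% in size; a mitochondrial uncoupler was the plate control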
#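 PINK1 protein, normally rapidly degraded, was detected by immunofluorescence after 24 hour compound treatment of a stable cell line. Titration data (5 concentrations) came from laser-scanning cytometry, with CCCP-treated wells as controls.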
# D2 PAM: positive allosteric modulators of human D2 dopamine receptor; potentiation, % (no concentration beside the values); AID 624464; 360,000 tested, 0.23% active; DiscoveRx D2 beta-arrestin cells, luminescence, 90 min; 100% = 57 uM dopamine signal; active = potentiation of 50% or more; inconclusive = 30% to 50%; inactive = 30% or less;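 also: compound concentration not given in the record; tested on top of an EC20 dose of dopamine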
#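 D2 cells co-treated with compound plus 50 nM dopamine (EC20) for 90 min at 37 deg C to detect potentiation. Beta-arrestin recruitment was read as enzyme-fragment luminescence after 1 h at ambient temperature. Full response was set by 57 uM dopamine.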
# TRPML1 inh: blocks the human TRPML1 channel. AID 624415. TRPML1-inducible cells, Ca2+ dye fluorescence, FDSS; hits give low values; inhibition of EC80 agonist-evoked calcium signal. Q9GZU1. 390,000 tested, 0.02% active. activity change, negative = inhibition, % (concentration not given with the values); in the data active means activity change below about -50%; inconclusive means about -30% to -50%; inactive means above about -30%;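 also: stimulus is agonist 54-4 at its EC80 concentration; % is scaled to controls: 0 for no effect and ±100 for the full control effect; compound concentration not given in the record; the text of the record puts the active cut at -80%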
#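 TRPML1-DL cells, Tet-induced overnight (~16 h, 37 °C) at 1,500 cells/well, were loaded with Ca8 no-wash dye plus quencher for 45-90 min at room temperature. Compounds were pinned during FDSS kinetic reading; agonist 54-4 at EC80 (4 uM final) then added.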
# * marks the source's active call; other numbers are inactive results; ? = inconclusive; · = no result given; & = joins results of further samples; [ ] = dose if it differs, or a comment.
# Sample of the layout, four compounds:
SMILES,TRPML1 ag,D2 ag,Six1-Eya2 inh,PINK1 modulator,D2 PAM,TRPML1 inh
COC(=O)c1cc(S(=O)(=O)NCC2CCN(Cc3cc(C)ccc3C)CC2)c[nH]1,-0.6&-0.5,0.0,-5,-1.8%&0.7%,-13,7&-6
CCCN(CCC)C(=O)Cc1ccc(F)cc1,-0.1,-3.5,-1,-0.9%,-2,-12
CCN(CC)C(=O)C(=O)c1cc(C)n(-c2ccc(F)cc2)c1C,1.0,-1.8,0,-1.2%,-11,-10
COc1ccc(C2CC(c3cccc(OC)c3OC)n3nnnc3N2)cc1 (configuration not stated),-0.9,-1.6,-2,-3.0%,-11,-5

# The listing, from the start:
SMILES,TRPML1 ag,D2 ag,Six1-Eya2 inh,PINK1 modulator,D2 PAM,TRPML1 inh
COC(=O)c1cc(S(=O)(=O)NCC2CCN(Cc3cc(C)ccc3C)CC2)c[nH]1,-0.6&-0.5,0.0,-5,-1.8%&0.7%,-13,7&-6
CCCN(CCC)C(=O)Cc1ccc(F)cc1,-0.1,-3.5,-1,-0.9%,-2,-12
CCN(CC)C(=O)C(=O)c1cc(C)n(-c2ccc(F)cc2)c1C,1.0,-1.8,0,-1.2%,-11,-10
COc1ccc(C2CC(c3cccc(OC)c3OC)n3nnnc3N2)cc1 (configuration not stated),-0.9,-1.6,-2,-3.0%,-11,-5
CC(C)(C)C(=O)CNCC(=O)C(C)(C)C,-0.3,-4.9,1,1.7%,2,-5
CC(C)c1ccc(/C=N/N2CCCCC2)cc1,0.0,0.6,-16,13%,-18,29
O=C1c2ccccc2C(=O)N1COc1ccc(S(=O)(=O)N2CCOCC2)cc1[N+](=O)[O-],-0.1,-3.4,7,0.7%,-5,-18
Cc1ccc(C(=O)OCn2ncc(Cl)c(Cl)c2=O)cc1,1.6,2.2,-11,-2.3%,-13,-3
Cc1ccc(S(=O)(=O)N(CC(=O)N2CCC(C(N)=O)CC2)Cc2ccc(F)cc2)cc1,0.1,-4.3,-2,·,1,3
CCCCn1c(N)c(N(CC(C)C)C(=O)Cc2ccc(S(=O)(=O)N3CCOCC3)s2)c(=O)[nH]c1=O,8.4,0.5,-2,13%,1,-17
Cc1ccc(-c2oc3ncnc(N)c3c2-c2ccc(C)cc2)cc1,-0.2,-0.6,-8,-1.5%[38.3 µM],0,0
CCOC(=O)N1CCc2c(sc3ncn(C)c(=O)c23)C1,-0.3,-2.4,5,-1.1%,-6,-2
C[C@@H](CN1CCC[C@H]1CN1C(N)=NC[C@@H]1Cc1ccccc1)N1C[C@@H](Cc2ccccc2)N(CCc2ccc(Cl)c(Cl)c2)C1=N,-0.2,-4.9,-1,4.5%,-31,-8
COc1ccc(N2CCN(c3ncnc4c3nnn4Cc3ccccc3Cl)CC2)cc1,0.5,1.3,0,17%,-10,-5
CC1CC(C)CN(C(=O)Nc2ccc(Br)cc2)C1 (configuration not stated),3.0,-2.8,-1,2.6%,-2,-12
CCCCN(C)Cc1c(O)ccc2c(=O)c(-c3ccccc3OC)coc12,-0.1,-5.2,-7,0.5%,-8,-2
Cc1onc(-c2ccccc2)c1CNC(=O)Nc1ccc(C(F)(F)F)cc1,0.1,4.4,4,?,-6,19
O=C(Cc1cc(=O)[nH]c(=O)[nH]1)N1CCN(C(=O)c2ccco2)CC1,-0.1,1.7,-2,1.5%,-3,-5
CC(=O)N1c2ccc(S(=O)(=O)N3CCCC3)cc2CC1C(=O)NCc1ccc(OC(C)C)cc1 (configuration not stated),0.0,0.9,0,-0.8%,-3,2
Cc1cc(C)cc(NC(=S)N2CCN(c3ccc(F)cc3)CC2)c1,-0.8,-4.5,-6,7.4%,-19,-6
COc1ccc2c(c1)[N+](C)(C)C(C)(C)C=C2C,1.9,-4.1,-3,0.0%,-2,-6
O=C(COc1ccccc1)Nc1nc2c(s1)CCCC2,-0.3,-2.6,2,-0.2%,-14,23
CCOC(=O)c1cnc2c(C)c(Cl)ccc2c1NCCCN1CCOCC1,·,-6.0,2,1.2%,-13,·
CCc1nc2c(OCc3ccc(C(=O)N(C)C)cc3)cccn2c1N(C=O)Cc1ccccc1,-0.5,-1.5,2,1.0%,-1,·
O=C1OC(Cc2ccccn2)C(=O)C1=C1SCCS1 (configuration not stated),1.2,0.5,-1,4.1%,-12,5
Cc1onc(-c2ccccc2)c1C(=O)OCC(=O)N(C)c1ccccc1,0.7,-5.3,15,-1.5%,-12,-4
Cc1ccc(-c2nn(-c3ccccc3)cc2C(=O)Nc2ccc(C)c(S(=O)(=O)N3CCOCC3)c2)cc1,0.3,0.4,-13,0.9%,11,-25
O=C1NC(c2ccc(Br)cc2)=N/C1=C/c1ccco1,0.0,-2.3,1,17%,-4,-7
O=C1CCC(CCC(=O)N2CCCC(C(=O)c3ccc(Cl)cc3)C2)=NN1 (configuration not stated),-0.5,-2.5,3,0.7%,-4,-12
CCN(CC(=O)Nc1c(F)cccc1F)C(=O)COc1cccc2c1OC(C)(C)C2,0.3,2.2,-4,1.4%,-7,-1
COc1ccc(-c2ccc(SCC(=O)N3CCN(c4ccccc4)CC3)nn2)cc1,-1.1,-0.9,4,1.8%,-21,-14
COc1ccccc1CNC(=O)CNCCc1ccc(OC)c(OC)c1,-0.3,0.2,0,-1.4%,-1,2
Cc1oc2c(C)c3oc(=O)c(CCC(=O)NCCCCCC(=O)O)c(C)c3cc2c1C,1.1,0.9,?,-0.6%,0,23
CCOc1cc(OCC)nc(S(C)(=O)=O)n1,0.6,-2.4,2,0.7%,-3,-9
Cc1cc(C)c(OCC(=O)Nc2nc3ccccc3[nH]2)c(C)c1,1.7,-1.2,0,1.9%,-2,-12
COc1ccc(/C=C(\C#N)C(=O)OCC(=O)NCc2ccccc2OC)cc1,0.4,-1.8,6,?,6,-3
CC1(c2cccc(Br)c2)NC(=O)N(CC(=O)Nc2ccc3c(c2)OCO3)C1=O (configuration not stated),0.8,-1.4,-3,-0.9%,-4,-10
CCOC(=O)C1CCCN(C(=O)c2ccccc2SCCOC)C1 (configuration not stated),0.5,3.0,5,-0.4%[38.3 µM],-1,4
COc1ccc(CC(=O)NCC2CCCN(Cc3cc(OC)cc(OC)c3)C2)cc1 (configuration not stated),0.0,-6.7,2,-0.2%,-7,42
Cc1ccnc(NC(=O)CSc2cc(=O)n(C)c3ccccc23)c1,1.5,2.9,-1,3.2%,-4,22
CCOC(=O)C1=CCC2C(=O)N(Cc3ccccc3)C(=O)C12 (configuration not stated),-0.2,-3.3,-1,1.2%,-2,20
Cc1nn(-c2ccccc2)c(C)c1NC(=O)COC(=O)c1cc(Cl)ccc1O,1.2,?,2,4.3%,?,-16
CCOCCCNC(=O)C(c1ccccc1)N(Cc1ccc2c(c1)OCO2)C(=O)c1ccc(NC(C)=O)cc1 (configuration not stated),0.8,·,·,-0.3%,·,4
Cc1noc(NS(=O)(=O)c2ccc(NC(=O)c3cc(S(=O)(=O)N(C)c4ccccc4)ccc3Cl)cc2)c1C,-0.9,-3.8,-5,3.9%,-7,-4
Cn1ccnc1Sc1nc2ccccc2nc1NS(=O)(=O)c1ccccc1,0.7,0.2,4,-2.4%[38.3 µM],0,9
CCC(O)C1CCN(C(=O)c2cc(COc3ccc(F)cc3F)on2)CC1 (configuration not stated),1.2,-5.0,4,0.3%,-5,46
CCCCc1ccc(NC(=S)N2CCN(C)CC2)cc1,-0.4,-5.6,-3,0.8%,-35,27
COc1ccc([N+](=O)[O-])cc1NC(=O)C(C)c1ccccc1 (configuration not stated),1.9,-0.5,1,4.0%,5,-9
Cn1c(=NC(=O)C2CC2)sc2cc(F)cc(F)c21,0.0,-6.7,6,-2.1%,-7,6
CCN(CC)S(=O)(=O)c1ccc(C(=O)C(C#N)c2ccccn2)cc1 (configuration not stated),0.7,-0.3,-1,·,10,-14
Cc1cc(C)nc(N2CCC(C(=O)Nc3nnc(C)s3)CC2)n1,-0.8,-2.8,0,0.1%,6,9
COc1ccc(C)cc1NC(=O)CCNC(=O)Cn1cnc2ccccc2c1=O,-1.1,-7.1,-20,2.1%,-18,33
CCCCNc1nc2ccccc2n1CC(=O)Nc1ccc2c(c1)OCCO2,·,-6.2,0,2.3%,-35,·
Cc1ccc(C(=O)NN2C(=O)C3C4c5ccccc5C(c5ccccc54)[C@@H]3C2=O)cc1 (some centres not stated),0.3,0.0,-4,-0.4%,-15,1
CC1CC(C)CN(C(=O)CSc2nc(N)cc(=O)[nH]2)C1 (configuration not stated),0.2,3.4,-9,-0.6%,-37,-8
CCOC(=O)c1cc(CC)sc1NC(=O)CSc1nc2ccccc2c(=O)n1Cc1ccco1,0.0,-3.7,-3,15%,4,6
Cn1c(CCN2CCCCC2)nc2cc(NC(=O)Nc3ccccc3)ccc21,0.2,-6.4,2,-1.4%,-44,11
COc1cc(/C=C2/NC(=O)N(c3cccc(Cl)c3)C2=O)ccc1O,0.1,7.5,-7,8.5%,6,-1
CCN1C(=O)S/C(=C/c2cn(C)c3ccccc23)C1=O,-0.8,0.4,17,-0.3%,1,17
COc1cccc(-n2ccnc2SCC(=O)N2CCCc3ccccc32)c1,2.7,-2.6,-14,-0.8%,-14,-11

# More results:
SMILES,TRPML1 ag,D2 ag,Six1-Eya2 inh,PINK1 modulator,D2 PAM,TRPML1 inh
Cc1occc1C(=O)N(C)CC1CCCN(CCc2ccccc2F)C1 (configuration not stated),0.4,-3.3,2,0.3%,-34,-1
O=S(=O)(Nc1ccc(S(=O)(=O)N2CCCCC2)cc1)c1cccs1,1.9,1.4,-1,-0.5%,19,-5
Cc1c(C(=O)N(C)C)sc2c1c(=O)n(-c1ccc(Cl)c(Cl)c1)c(=O)n2CC(=O)Nc1cccc(C(F)(F)F)c1,1.8,·,·,0.1%,·,-7
Cc1cc(C)c(-n2c(SCc3nc4ccccc4s3)n[nH]c2=O)c(C)c1,1.0,3.8,-15,-1.7%,3,21
Cc1ccc(C)c(CN2C(=O)CSc3ccc(C(=O)NCCc4ccc(Cl)cc4)cc32)c1,0.1,·,·,6.8%,·,-1
COc1ccc(N2CCN(C(=O)Cc3ccc(Br)cc3)CC2)cc1,-0.4,-4.6,-16,-0.6%,-16,14
COC(=O)c1c(C(=O)OC)c(-c2ccc(Cl)cc2)n2c1CS(=O)(=O)C2,1.8,5.8,-5,1.5%,-3,-11
CCOC(=O)CSC1=C(C#N)C(c2ccc(C)cc2)C(C(=O)OC)C(=O)N1 (configuration not stated),4.9,-2.5,-2,-2.9%,2,0
CCCc1nc2ccc(C)cn2c1Cc1ccc(C)cc1,3.2,-5.0,0,8.4%,-11,23
CC(=O)c1c(C)[nH]c(C(=O)Nc2cc(C)ccc2C)c1C,-0.1,-1.1,-3,1.1%,-5,8
Nc1c(Cl)nc(-c2ccccc2)nc1Cl,4.9,1.9,-6,-1.9%,13,-3
CC(=O)N1CCN(C(=O)c2cc(C)oc2C)CC1,0.2,2.5,0,2.2%,0,4

# High-throughput results from PubChem BioAssay.
